# Rango-impB inh – prevents formation of the Rango-importin beta complex; Q14974; Rango CFP/YFP FRET sensor + importin beta, 45 min; Potency, µM (top dose mostly 92.2 µM), without a hit: top-dose inhibition of complex formation; 340,000 tested, 0.031% active; active = rising FRET ratio curve, often small or poorly fitted; inconclusive = mostly compound fluorescence or quenching in the first reads; inactive = flat curves in all reads;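 further: potency means the concentration at half of the fitted maximal effect; 0% = DMSO wells and 100% = buffer wells lacking importin beta; nearly all actives have a fitted effect of over 15% in size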
#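 Inhibition scored from the CFP 486 nm/YFP 530 nm FRET ratio 45 min after adding 0.125 microM importin beta to 50 nM Rango biosensor preincubated 5 min with compound (room temperature, PBS with DTT, Tween-20, BSA). No-importin wells as positive control.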
# miR-21 FLuc – raises the signal of a miR-21 reporter. HeLa miR-21 FLuc reporter, luciferase, 48 h. Potency, µM (titrated, usually from 38.3 µM), without a hit: top-dose reporter change, positive = more light. 340,000 tested, under 10 active. AID 2288; active = well fitted rising curve with a large enough effect; inconclusive = small, poorly fitted or top-dose-only effect; inactive = no such curve, though single readings can be large or run the other way;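 further: % of control where 0% means no effect; miR-21 action dims this reporter so a rising signal means less miR-21 action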
#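 HeLa cells stably expressing CMV-driven firefly luciferase with a downstream miR-21 binding sequence, endogenously expressing miR-21, were treated with titrations (up to about 40uM final) for 48 hours at 37 degree Celsius. Luciferase luminescence was read after lysis.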
# GLA inh pH 4.5 – alpha-galactosidase A (human) inhibition, pH 4.5. purified enzyme, 4-MU-alpha-Gal fluorescence, pH 4.5. 230,000 tested, under 10 active. activity change, negative = inhibition, % at 105 µM; inconclusive = small, poorly fitted or top-dose-only inhibition, or a rising curve; inactive = flat fitted curve, though single readings scatter; no compound was filed as active;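 further: 0% = full activity with enzyme and -100% = basal without enzyme; dose as in the result columns while the protocol names 77 µM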
# Target sequence (P06280 whole entry, looked up): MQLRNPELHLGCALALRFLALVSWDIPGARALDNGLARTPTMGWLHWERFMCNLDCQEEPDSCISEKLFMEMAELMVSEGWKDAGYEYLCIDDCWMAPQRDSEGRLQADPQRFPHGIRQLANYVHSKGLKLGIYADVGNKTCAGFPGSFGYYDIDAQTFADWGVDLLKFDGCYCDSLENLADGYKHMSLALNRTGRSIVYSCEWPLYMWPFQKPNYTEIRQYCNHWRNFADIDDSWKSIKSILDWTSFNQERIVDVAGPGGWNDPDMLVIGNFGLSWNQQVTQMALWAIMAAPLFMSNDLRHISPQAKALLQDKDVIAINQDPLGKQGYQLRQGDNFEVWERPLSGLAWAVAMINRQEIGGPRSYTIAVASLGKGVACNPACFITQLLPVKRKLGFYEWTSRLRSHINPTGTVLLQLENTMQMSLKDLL
# Rango release inh – inhibition of RanGTP-driven Rango-importin beta dissociation; 340,000 tested, 0.071% active; Biochemical FRET Rango-importin beta, RanGTP-induced dissociation; O95149+P62826; AID 540253; Potency, µM (series often up to 46.1 µM), for inactives: at the highest dose activity change, negative = inhibition; active means falling FRET ratio curve, often poorly fitted, with flat reads before Ran was added; inconclusive means other falling curves, or compound fluorescence or quenching; inactive means flat or rising ratio curve;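 further: potency means the concentration at half of the fitted maximal effect; % of control where 0% means no effect; nearly all actives have a fitted effect of over 45% in size; -100% = wells without RanGTP and RCC1; the record marks most hits as doubtful in a second field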
#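 Compounds preincubate 5 min with complex of recombinant Rango and importin beta in PBS with 1 mM DTT. Ran (0.6 uM) loaded with 2 mM GTP plus 0.2 uM RCC1 starts dissociation; FRET is recorded 45 min later.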
# Numbers without * were called inactive; ? = inconclusive; nt = not tested or not shown. Some of the compounds tested; rates above refer to the full screens.
smiles	miR-21 FLuc	Rango-impB inh	Rango release inh	GLA inh pH 4.5
Cc1cccc(N2CCN(C(=O)CCS(=O)(=O)c3ccc4c(c3)NC(=O)C(C)S4)CC2)c1C (configuration not stated)	0%	0.9%	7%	nt
CS(=O)(=O)c1sc(C(=O)NC(=O)Nc2cccc(C(F)(F)F)c2)c2c1C=CCC2	0%	2.4%	4%	1
O=C(/C=C/c1ccc2c(c1)OCO2)N1CCN(c2ccc(Cl)cc2)CC1	2%	-1.2%	-7%	2
O=c1c2cnn(-c3ccccc3Cl)c2ncn1Cc1cccnc1	-6%	0.6%	0%	4
COc1ccc2nc(NC(=O)NC3CCCCC3)sc2c1	-54%	-0.8%	-16%	-6
COc1ccc(CCNC(=O)CCSCc2ccccc2F)cc1OC	-4%	-0.2%	0%	nt
CCOc1ccc(NC(=O)C(c2ccccn2)N(C(=O)CCl)c2ccc(OCC)cc2)cc1 (configuration not stated)	-44%	?	-22%	2
CCOC(=O)c1cnc(SC)nc1Sc1ccc(Cl)cc1Cl	-1%	0.7%	3%	-7
O=C(CCN1C(=O)/C(=C/c2ccccc2)SC1=S)NNC(=O)c1ccncc1	0%	-4.9%	-15%	-5
O=C(c1ccccc1C(=O)N1CCN(c2ccccc2F)CC1)N1CCN(c2ccccc2F)CC1	12%	8.0%	21%	-4
CCOc1ccc(N(CC(=O)Nc2ccc(C)cc2C)S(C)(=O)=O)cc1	-1%	0.3%	-14%	nt
CCOC(=O)c1cnc2ccc(C(=O)OC)cc2c1NCCCN1CCOCC1	0%	-4.3%	11%	nt
COc1ccc(NC(=O)CSc2nc3ccccc3c(=O)n2CCCN2CCC(C)CC2)c(OC)c1	6%	-0.1%	1%	1
COc1ccc(C2C(C(=O)N3CCN(c4ccccn4)CC3)CC(=O)N2c2ccc(OC)cc2)cc1 (configuration not stated)	4%	0.0%	-1%	0
COc1cc(/C=N/NC(=O)c2cccc(NC(=O)c3ccccc3C)c2)ccc1O	0%	-1.9%	25%	nt
Cc1ccccc1N1C(=O)C(Oc2ccc(Cl)cc2)C1CNCCCOC(C)C (configuration not stated)	-1%	1.2%	-10%	-6
COc1ccc(NS(=O)(=O)c2c(C)cc(C)cc2C)cc1	18%	3.3%	2%	4
COc1ccccc1CNC(=O)C1CC(c2ccccc2F)=NO1 (configuration not stated)	-7%	0.1%	-6%	9
C/C(=N\NC(=O)c1cc(-c2ccncc2)nc2ccccc12)c1ccc(N2CCOCC2)cc1	12%	2.8%	-13%	-5
CC(C)N(C(=O)CS(=O)(=O)c1ccc(Cl)c(Cl)c1)C(C)C	-7%	3.4%	0%	-5
CC(C)Cn1c(N)c(C(=O)COC(=O)c2cnccn2)c(=O)n(C)c1=O	nt	?	-16%	nt
COc1ccc(/C=C/C2=CCN(Cc3ccc(OC)cc3)CC2)cc1	20%	-1.2%	-4%	-11
CCOc1ccccc1NS(=O)(=O)c1csc(C(N)=O)c1	0%	-2.7%	-4%	nt
CCOC(=O)C1CCN(S(=O)(=O)c2ccc3[nH]c4c(c3c2)CCCC4)CC1	0%	?	0%	nt
COc1ccc(C)cc1NC(=O)CSc1nnc(CC(=O)Nc2ccccc2C)n1C	1%	-1.5%	16%	1
O=C(CN1C(=O)NC2(CCc3ccccc32)C1=O)Nc1cccc(Cl)c1 (configuration not stated)	nt	?	-13%	nt
COc1ccc(Cl)cc1N(CC(=O)N1CCCC1)S(C)(=O)=O	-2%	0.6%	2%	nt
CCn1c(C)cc(C(=O)CN2C(=O)c3ccccc3S2(=O)=O)c1C	nt	-0.6%	3%	nt
CC12C=CC(=O)C=C1CCC1C3CCC(O)(C(=O)CO)C3(C)CC(O)C12F (configuration not stated)	nt	0.3%	-5%	nt
Cc1ccc(C)c(NC(=O)CN(C)C(=O)c2cc([N+](=O)[O-])ccc2N2CCOCC2)c1	nt	5.0%	-17%	nt
N#C/C(=C\c1ccc(Cl)cc1)C(=O)Nc1cccnc1	-1%	?	20%	3
CC(=O)Nc1ccc(NC(=O)C2CCN(c3c(Cc4ccccc4)c(C)nc4ncnn34)CC2)cc1	nt	?	-16%	nt
CC(C)CN1CCN=C1Nc1ccccc1	0%	-1.3%	8%	nt
CCOc1ccc2nc(SCC(=O)N3CCCCCC3)c(C#N)cc2c1	-7%	-5.9%	?	-16
O=C(NC1C2CC3CC(C2)CC1C3)C1CCCCC1 (configuration not stated)	-1%	-0.4%	5%	nt
Nc1nc(-c2ccc(Cl)cc2)nnc1-c1ccc(Br)cc1	-61%	-1.1%	-5%	-1
COc1ccc(NC(=O)Nc2cc(C)ccc2OC(F)F)c(OC)c1	4%	4.3%	1%	-13
CC=Cc1cc(OC)c2c(c1)C(C)C(c1ccc(O)c(OC)c1)O2 (configuration not stated)	nt	1.2%	4%	nt
CC(NS(=O)(=O)OCC(Cl)(Cl)Cl)c1ccc(C(C)(C)C)cc1 (configuration not stated)	19%	?	-3%	nt
Cc1c(/C=C(\CC(=O)O)c2nc3ccccc3s2)cc(C#N)n1C	-11%	-3.6%	-10%	-5
CCOC(=O)N1CCN(C(=O)c2cccc(-n3c(=S)[nH]c4cc(Cl)ccc4c3=O)c2)CC1	-4%	0.3%	1%	-3
COc1ccc(-c2nc(SCc3ccc(C#N)cc3)[nH]c(=O)c2C#N)cc1	0%	-0.4%	1%	nt
O=C(COc1cccc2cccnc12)Nc1cccc(S(=O)(=O)N2CCCC2)c1	nt	0.8%	8%	nt
O=C(N/N=C\c1cc(Cl)ccc1O)c1ccc(S(=O)(=O)N2CCCCC2)cc1	10%	?	-10%	-8
Cc1cccc(C(=O)c2c(N)sc3c2CCC(C)C3)c1 (configuration not stated)	-13%	-1.0%	1%	-17
COc1ccc(-c2cc(C)no2)cc1S(=O)(=O)N1CCN(C(=O)c2ccco2)CC1	-9%	0.0%	?	nt
COc1ccccc1C(=O)n1nc(-c2ccccc2)nc1NCc1ccco1	-22%	0.1%	-9%	-9
Cc1cc(=O)[nH]c(SCc2cccc(F)c2)n1	-5%	4.4%	21%	2
COc1ccc(Cn2c(=O)sc3ccccc32)cc1	-13%	0.6%	22%	-5
CCCC(C(=O)NC1CCCC1)N(Cc1cccs1)C(=O)c1snc(C(N)=O)c1N (configuration not stated)	17%	4.0%	10%	-1
Fc1cccc(-c2c(-c3ccccc3)ncc3cc(F)ccc23)c1	nt	2.0%	-23%	nt
CN1C(=O)S/C(=C\c2ccccc2OCc2ccc(C(=O)O)cc2)C1=O	-5%	1.4%	-6%	-8
CC(C)CN1CCN(Cc2ccc(C#CC(C)(C)O)cc2)CC1CCO (configuration not stated)	0%	-5.6%	1%	nt
Cc1cc(C)n2cc(COc3ccccc3)nc2n1	-23%	-2.6%	13%	-1
Cc1ccc(NC(=O)C2CCN(S(=O)(=O)c3ccc4c(c3)NC(=O)C(C)S4)CC2)c(C)c1 (configuration not stated)	21%	4.4%	-6%	nt
COc1ccccc1N1CCN(C(=O)c2oc3cc(C)cc(C)c3c2C)CC1	10%	-1.5%	0%	-2
COc1ccc(/C=N/NC(=O)c2ccc[nH]2)cc1	-47%	-3.8%	-11%	nt
Cc1onc(-c2ccccc2)c1C(=O)O/N=C(\N)c1ccc([N+](=O)[O-])o1	9%	5.3%	1%	-14
COc1ccc(S(=O)(=O)N2CCC(C(=O)Nc3cccc(Cl)c3)CC2)cc1OC	0%	2.0%	-5%	-5
COc1cccc(NC(=O)c2cccs2)c1	-44%	?	-1%	-5

# Part of the list above, set out differently:
compound: COc1ccc(/C=N/NC(=O)c2ccc[nH]2)cc1
  miR-21 FLuc: -47%	Rango-impB inh: -3.8%	Rango release inh: -11%	GLA inh pH 4.5: nt
compound: Cc1onc(-c2ccccc2)c1C(=O)O/N=C(\N)c1ccc([N+](=O)[O-])o1
  miR-21 FLuc: 9%	Rango-impB inh: 5.3%	Rango release inh: 1%	GLA inh pH 4.5: -14
compound: COc1ccc(S(=O)(=O)N2CCC(C(=O)Nc3cccc(Cl)c3)CC2)cc1OC
  miR-21 FLuc: 0%	Rango-impB inh: 2.0%	Rango release inh: -5%	GLA inh pH 4.5: -5
compound: COc1cccc(NC(=O)c2cccs2)c1
  miR-21 FLuc: -44%	Rango-impB inh: ?	Rango release inh: -1%	GLA inh pH 4.5: -5

# The list continues:
smiles	miR-21 FLuc	Rango-impB inh	Rango release inh	GLA inh pH 4.5
O=C(Nc1cccc(S(=O)(=O)N2CCCC2)c1)c1ccc2c(c1)OCO2	1%	3.3%	0%	-5
COC(=O)C1C(=O)C2=C(CC1C)NC(C)=C(C(=O)OC(C)C)C2c1ccc(OC)c(O)c1 (configuration not stated)	-8%	1.8%	-5%	-5
CCN(CC)c1nc(SCC(=O)O)nc(N(CC)CC)n1	1%	-0.3%	1%	3
CSc1ccccc1NC(=O)CCn1c(=O)oc2ccccc21	-10%	0.1%	9%	nt
Cc1c(O)c(S(=O)c2ccccc2)c(=O)n(-c2ccccc2)c1-c1ccccc1 (configuration not stated)	3%	-1.0%	-6%	0
CNCc1ccccc1OCc1ccc(F)cc1	-7%	0.4%	-6%	-7
COc1ccc(CCNC(=O)CCN2C(=O)C(C)Oc3ccc(C)cc32)cc1OC (configuration not stated)	-2%	-1.8%	-8%	1
Cc1cccc(NC(=O)Cn2nnc(C(=O)NCc3cccs3)c2N)c1C	3%	1.7%	13%	8
CCCS(=O)(=O)N1CCC(C(=O)NCCCN(C)Cc2ccccc2)CC1	-2%	-1.8%	1%	8
Cc1ccc(S(=O)(=O)N2CCCCC2)cc1C(=O)OCC(=O)NC(=O)NC12CC3CC(CC(C3)C1)C2	-13%	2.4%	-8%	-2
CCn1c(Cc2ccccc2)nnc1SCC(=O)Nc1ccc(S(N)(=O)=O)cc1	-1%	4.5%	3%	3
Cc1ccc(COc2ccc(/C=N/NC(=O)c3nnn(-c4nonc4N)c3COc3ccc(F)cc3)cc2)cc1	0%	0.0%	0%	5
CCOC(=O)C(NC(=O)CC)(Nc1nc2c(s1)CCCC2)C(F)(F)F (configuration not stated)	1%	1.8%	-12%	-2
CCn1c2ccccc2c2cc(N)ccc21	2%	-1.9%	0%	2
Cc1cccc(-c2nn(-c3ccccc3)cc2C(=O)Nc2cccc(S(=O)(=O)NC3=NCCC3)c2)c1	nt	0.5%	5%	nt
CCCC[C@@H]1C=C(C(=O)O)[C@H](c2ccc(Br)cc2)N1S(=O)(=O)c1ccc(C)cc1	nt	1.4%	22%	nt
Cc1cccc(C)c1NC(=O)COc1ccccc1C(=O)Nc1ccc(Br)cn1	-1%	-4.4%	-18%	-2
COc1ccc2c(Cl)c(C(=O)NCCCn3ccnc3)sc2c1	-10%	0.5%	6%	-7
CCN(C(=O)c1ccco1)c1nc(CC(=O)Nc2ccc(Cl)cc2)cs1	-15%	-3.3%	3%	-10
S=C(c1ccc(-c2ccc(Cl)c(Cl)c2)o1)N1CCOCC1	-61%	-3.4%	-2%	7
COc1cc(/C=C/c2noc(-c3ccccc3O)n2)ccc1OC(C)=O	-29%	0.7%	-8%	-4
CCN1CCN(S(=O)(=O)c2ccc(Cl)c(C(=O)Nc3nnc(C)s3)c2)CC1	nt	5.1%	0%	nt
COc1cc(OC)cc(-c2nc3ccccc3c(=O)o2)c1	-4%	1.2%	15%	3
O=C(NOCc1ccccc1)OCc1ccccc1	nt	2.3%	9%	nt
COCCn1nnnc1C(C(C)C)N(Cc1cccnc1)Cc1ccccc1Cl (configuration not stated)	-8%	0.3%	0%	-7
Cc1nnc(SC(C)C#N)n1-c1ccccc1 (configuration not stated)	-3%	0.4%	-2%	5
CCn1c(SCC(=O)Nc2nc(-c3ccccc3)cs2)nnc1-c1ccccc1O	23%	-2.9%	1%	0
COc1cccc(C2NC(=O)c3ccccc3O2)c1OC (configuration not stated)	-4%	-1.2%	-4%	12
